HSD17B inhib: HSD17B dehydrogenase inhibition | Q99714 | recombinant HSD17B10, NADH fluorescence kinetic; many of its hits are not listed in these tables | Potency, µM (top dose mostly 57.1 µM), without a hit: top-dose activity change, negative = inhibition, most hits filed as inhibitors | 7.6% of 75,000 active; active = well fitted inhibition curve with a large enough effect; inconclusive = small, poorly fitted or top-dose-only effect; inactive = no such curve, though single readings can be large or run the other way;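 also: the protocol describes HADH2 (HSD17B10) and not the HSD17B4 of the title; nearly all actives have a fitted effect of over 70% in size; most hits overshoot -100% by far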
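20 nM HADH2, pH 9.0 Tris/Tween; cpd preinc 15 min RT; start w/ 1 mM NAD+ + 90 uM b-hydroxybutyryl-CoA; kinetic fluor ex360/em450 q30s x 4 min; delta last-first.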
* = called active by the depositor; u = inconclusive; & = joins results of further samples; [ ] = another dose, or the depositor's remark. % is scaled to controls: 0 for no effect and ±100 for the full control effect; potency is read from the fitted curve at half-maximal effect.

SMILES	HSD17B inhib
CC(=O)OC(C(=O)NCc1ccco1)c1ccncc1 (stereo unspecified)	10%
Cc1ccc(C)c(NC(=O)CSc2nnc([C@@H]3CCCN3C(=O)OC(C)(C)C)o2)c1	0%
CCN1CCN(C(=O)c2ccc3c(=O)n(CCC4=CCCCC4)c(=O)[nH]c3c2)CC1	u
Cc1cccc(Nc2nc(N)nc(CN3CCN(c4ccccc4F)CC3)n2)c1	-2%
Cc1ccc(S(=O)(=O)c2nc(-c3cccs3)oc2SCC(N)=O)cc1	u
CCn1c(SCC(=O)NC(=O)Nc2ccc3c(c2)OCCO3)nnc1-c1cccs1	0%
CCCOc1ccc2oc(=O)c3c(c2c1)CCCN3C(=O)CN1CCN(c2ncccn2)CC1	-25%
COc1ccc(CNC(=O)c2onc(C)c2Cl)cc1	5%
COc1cc(NC(=O)CSc2nccc(C)n2)c(C(=O)O)cc1OC	-6%
CC1(C)CC(=O)C(Sc2nnc(-c3ccc(NS(C)(=O)=O)cc3)n2Cc2ccco2)C(=O)C1	-9%
CCOC(=O)C1=C(N)n2c(s/c(=C/c3ccco3)c2=O)=C(C(=O)OC)C1c1ccco1 (stereo unspecified)	u
COC(=O)c1cccc(-n2nnnc2SCC(=O)Nc2cc(C)on2)c1	0%
COc1cccc2c1OC1(C)CC2NC(=O)N1c1cccc(C(=O)N2CCN(c3ccccn3)CC2)c1 (stereo unspecified)	-17%
O=S1(=O)C=CC(N2CCOCC2)C1 (stereo unspecified)	-2%
Cc1cc(C)nc(NC(=NCc2ccc3c(c2)OCO3)NC(=O)Nc2ccccc2)n1	-2%
COc1cccc(OC)c1C(=O)N1CC(C)OC(C)C1 (stereo unspecified)	10%
O=C(O)C1C(c2ccccc2)C(C(=O)Oc2ccc(O)cc2)C1c1ccccc1 (stereo unspecified)	-2%
CCC1=C(OC(=O)N(CC)CC)N2C(=O)OC(=NCC3CC3)[C@]2(C)[C@H]2C1=CC[C@H]1C(=O)N(C)C(=O)[C@H]12	7%
CCC(Sc1ccccn1)C(=O)Nc1nnc(C)s1 (stereo unspecified)	18%
CC(=O)Nc1cccc(-c2nnc(SCc3ccccc3C#N)n2C)c1	9%
O=c1cc(Nc2ccc3c(c2)OCCO3)[nH]c(=O)n1C1CCCCC1	13%
COc1cc2nc3c4ccccc4n(CC#N)c3nc2cc1OC	7%
COc1ccc(Cc2nnc(NC(=O)Cc3cccs3)s2)cc1OC	20µM*
COC(=O)c1ccccc1NC(=O)CSc1nnc(CNS(=O)(=O)c2ccc(C)cc2)n1C	7%
COc1ccc(S(=O)(=O)Cc2ccc(C(=O)N3CCc4ccccc4C3)o2)cc1	-5%
O=C(C1CCN(S(=O)(=O)N2CCC3(CC2)OCCO3)CC1)N1CCc2ccccc2C1	8%
COC(=O)c1cc(=O)nc2sccn12	25µM*
CCOC(=O)c1[nH]c2ccc(OC)cc2c1NC(=O)N1CCOCC1	25µM*
COc1cccc(C2=NOC(C(=O)NCc3ccco3)C2)c1 (stereo unspecified)	2%
COCCn1c(=O)c(-c2ccc(F)cc2)nc2cnc(OCc3ccccc3)nc21	32µM*
c1ccc(-n2nnnc2SCCCSc2nc3ccccc3s2)cc1	-12%
COc1ccccc1C(=O)NCC(=O)Nc1ccccc1	-8%
CCCC12CN3CC(C)(CN(C1)C31C(=O)Nc3ccc(C)cc31)C2=O (stereo unspecified)	1%
CN(c1ccc(C(=O)Nc2ccccc2C(=O)N2CCCC2)cc1)S(C)(=O)=O	5%
COc1ccc(CCNC2=NCCS2)cc1	-7%
CCOc1ccc(C(=O)CN2CCN(S(=O)(=O)c3ccc(F)cc3)CC2)cc1	-10%
CCCCn1c(NCc2ccccc2O)nc2ccccc21	4%
O=C(O)c1ccc(S(=O)(=O)Nc2ccc(F)c(Cl)c2)cc1	2%
O[Si@](CCCN1CCCCC1)(c1ccc(F)cc1)C1CCCCC1	-5%
CC(OC(=O)c1cc2sccc2n1C)C(=O)NCCc1ccccc1 (stereo unspecified)	-3%
O=C(c1cc2ccccc2oc1=O)N1CCCC1	-5%
O=C(COc1ccc(F)cc1)NCC1CCCO1 (stereo unspecified)	-7%
Cc1ccccc1S(=O)(=O)Cc1ccc(C(=O)N2CCN(c3cccc(C)c3C)CC2)o1	0%
COC(=O)c1cccc(C23CC4(C2)[C@H](CN(Cc2cccnc2)[C@@H]4c2ccccc2)C3c2ccc(C(F)(F)F)cc2)c1 (stereo partly specified)	1%
COc1ccc(C2c3c(oc4ccccc4c3=O)C(=O)N2c2ccc(C)cn2)cc1OC (stereo unspecified)	-6%
CCC1CCCCN1CCCNC(=O)c1cn(CC(C)C)c(=O)c2cc(OC)c(OC)cc12 (stereo unspecified)	-24%
CC1Cc2ccccc2N1C(=O)CSc1nnc(-c2ccc(S(=O)(=O)N3CCCCC3)cc2)o1 (stereo unspecified)	-1%
Nc1nc2c(nc(Br)n2C2CC(O)C(CO)O2)c(=O)[nH]1 (stereo unspecified)	-2%

Brought forward from above: 7 entries; new compounds follow.
SMILES	HSD17B inhib
O=C(COc1ccc(F)cc1)NCC1CCCO1 (stereo unspecified)	-7%
Cc1ccccc1S(=O)(=O)Cc1ccc(C(=O)N2CCN(c3cccc(C)c3C)CC2)o1	0%
COC(=O)c1cccc(C23CC4(C2)[C@H](CN(Cc2cccnc2)[C@@H]4c2ccccc2)C3c2ccc(C(F)(F)F)cc2)c1 (stereo partly specified)	1%
COc1ccc(C2c3c(oc4ccccc4c3=O)C(=O)N2c2ccc(C)cn2)cc1OC (stereo unspecified)	-6%
CCC1CCCCN1CCCNC(=O)c1cn(CC(C)C)c(=O)c2cc(OC)c(OC)cc12 (stereo unspecified)	-24%
CC1Cc2ccccc2N1C(=O)CSc1nnc(-c2ccc(S(=O)(=O)N3CCCCC3)cc2)o1 (stereo unspecified)	-1%
Nc1nc2c(nc(Br)n2C2CC(O)C(CO)O2)c(=O)[nH]1 (stereo unspecified)	-2%
Cc1cccc(N(CC(=O)NC2CCCC2)C(=O)CS(=O)CC(=O)Nc2ccc3c(c2)OCO3)c1 (stereo unspecified)	23%
COC(=O)CN1CCN(C(c2ccccc2)c2ccccc2)CC1	9%
CC(=O)c1cccc(NC(=O)CN(c2ccccc2)S(C)(=O)=O)c1	4%
O=C(O)c1nn(-c2ccc(Cl)cc2)ccc1=O	-10%
Cn1c(C(=O)N2CCC(C(=O)N3CCOCC3)CC2)cc2sccc21	-3%
Cc1ccc(C)c(N2CCN(C(=O)C3CCN(c4nc(C)cc(C)n4)CC3)CC2)c1	u
COc1ncc2nc(C)c(=O)n(Cc3ccc(F)cc3)c2n1	1%
CCN(CCNC(=O)CC1Oc2ccccc2NC1=O)c1ccccc1 (stereo unspecified)	2%
COC(=O)CSc1nnc(-c2ccco2)n1Cc1ccco1	0%
Cc1cc(C)n(-c2nc3c(c(=O)[nH]c(=O)n3C)n2Cc2ccccc2)n1	-9%
O=C(CC(=O)c1ccccc1)Nc1ccc2c(c1)OCCO2	-2%
COc1ccccc1N1CCN(C(=O)c2ccncc2)CC1	-3%
c1ccc(Nc2nn[nH]n2)cc1	14%
O=C(N1CCOCC1)C1(c2ccccc2)CCCCC1	1%
COc1ccc(CCNC(=O)Cn2cnc3c(nnn3Cc3ccccc3F)c2=O)cc1OC	1%
CCn1cc(Br)c(C(=O)NCc2ccco2)n1	3%
CCOC(=O)C1CCCCN1C(=O)CCc1c(C)nc2cc(-c3ccccc3)nn2c1C (stereo unspecified)	u
Cc1cc(C)nc(SCc2cccc(C(=O)O)c2)n1	0%
Cc1cc(OCCOCCN2CCCC2)ccc1C(C)C	1%
O=C(C(Cc1ccccc1)N1C(=O)C2C3C=CC(C3)C2C1=O)N1CCCCC1 (stereo unspecified)	6%
Cn1c(SCC(=O)NCCN2C(=O)CSC2=O)nc2ccccc2c1=O	-3%
Cc1nc2ccccn2c1/C(O)=C1\C(=O)C(=O)N(CCCN(C)C)C1c1ccc(Cl)cc1 (stereo unspecified)	-9%
Cc1cc(C(=O)Nc2nc3c(s2)CCCC3)cs1	-5%
Cc1cc(C)nc(/N=C2/NC(=O)CS2)n1	-10%
c1ncc(-c2ccc3c(c2)OCO3)c(NCCc2cnc[nH]2)n1	u
CC1(C(=O)NCc2ccccn2)C=CCN1C(=O)c1ccccc1 (stereo unspecified)	-4%
CCC1(N(C(C)=O)c2ccc(OC)cc2)C(=O)c2ccccc2C1=O	3%
CC(C)CCn1c(CN2CCN(Cc3ccccc3)CC2)nc2c1c(=O)[nH]c(=O)n2C	6%
CNc1cc(OC)c(C(=O)N[C@@H]2CCN(Cc3ccccc3)[C@H]2C)cc1Cl	-9%
O=C(O)C1CCCN1S(=O)(=O)c1ccc2c(c1)CCC2 (stereo unspecified)	5%
CCOc1ccc(CNC(=O)C2CCCN(S(C)(=O)=O)C2)cc1OC (stereo unspecified)	0%
COc1ccc(-c2nnc3n2N=C(c2ccccc2)CS3)cc1OC	-12%
CCc1ccc(N/C(SCc2cccc(F)c2)=C(/C#N)C(=O)NCc2ccco2)cc1	-8%
CCOC(=O)C1C(=O)CC(C)(O)C(C(=O)OCC)C1/C=C/c1ccccc1 (stereo unspecified)	4%
Cc1cc2c(cc1S(N)(=O)=O)S(=O)(=O)CCC2	6%[25.6 µM]
O=C(c1ccc2c(c1)[nH]c(=S)n1c3ccccc3nc21)N1CCN(c2ncccn2)CC1	-10%
O=C(O)CSCc1cnn(-c2ccccc2)c1-n1cccc1	-7%
COc1ccccc1Nc1ncccc1C(=O)O	-18%
CCN(CCCNC(=O)C1CCC(=O)N1C1CCCC1)c1cccc(C)c1 (stereo unspecified)	-5%
O[C@@H](c1cc(C(F)(F)F)nc2c(Cl)cc(Cl)cc12)[C@@H]1CCCCN1	-2%[11.4 µM]
CCN(C(=O)CSc1nncs1)c1c(N)n(Cc2ccccc2)c(=O)[nH]c1=O	-10%
O=C(CN1C(=O)CCS(=O)(=O)c2ccccc21)Nc1cccc(Cl)c1	2%
NC1CCN(c2cccc(Cl)n2)CC1	2%&11%
CCOc1ccc(NC(=O)C2CC(=O)N(c3cc(C)cc(C)c3)C2)cc1 (stereo unspecified)	-3%
Cc1cc(C)nc(NCCCc2ccccc2)n1	-6%
COc1cccc(NC(=O)CN(c2ccc(C)cc2)S(=O)(=O)c2c(C)nn(C)c2C)c1	-5%
COCc1c(C(=O)OCC(=O)N2c3ccccc3NC(=O)C2(C)C)oc2ccccc12	-6%
Cc1cc(Nc2ncc(Cl)cc2Cl)n(-c2ccccn2)n1	9%

4 records picked at random from the list so far, as already listed:
SMILES	HSD17B inhib
Cc1cc(C)nc(NCCCc2ccccc2)n1	-6%
COc1ccccc1Nc1ncccc1C(=O)O	-18%
O[C@@H](c1cc(C(F)(F)F)nc2c(Cl)cc(Cl)cc12)[C@@H]1CCCCN1	-2%[11.4 µM]
O=C(CN1C(=O)CCS(=O)(=O)c2ccccc21)Nc1cccc(Cl)c1	2%

The main list resumes with the 4 entries that preceded the break.
SMILES	HSD17B inhib
Cc1cc(C)nc(NCCCc2ccccc2)n1	-6%
COc1cccc(NC(=O)CN(c2ccc(C)cc2)S(=O)(=O)c2c(C)nn(C)c2C)c1	-5%
COCc1c(C(=O)OCC(=O)N2c3ccccc3NC(=O)C2(C)C)oc2ccccc12	-6%
Cc1cc(Nc2ncc(Cl)cc2Cl)n(-c2ccccn2)n1	9%
O=C1C=C(NCc2ccco2)CC(c2ccc(Cl)cc2)C1 (stereo unspecified)	-3%
Cc1ccn2cc(C(=O)NC3CCN(Cc4ccccc4)CC3)nc2c1	32µM*
O=P(O)(O)C(O)C(F)(F)C(F)(F)C(F)(F)C(F)F (stereo unspecified)	1%
Cc1cc(OC(=O)N2CCCCC2)cc(C)c1Cl	-3%
CCOc1cc(C)nc(N2CCC(C(=O)Nc3ccccc3OCC)CC2)n1	4%
COC(=O)c1ccnc(/C=N/O)c1	13%
Cc1ccc(-c2c3c(=O)n(C)c(=O)n(C)c3c3nnc4ccccc4n23)cc1	3%
CN=C(N)/N=C(\N)Nc1cc2ccccc2c2ccccc12	15%[11.4 µM]
CC(C)N(C(=O)COC(=O)c1ccccc1C(=O)N1CCN(c2ccc(F)cc2)CC1)C(C)C	9%
C=CCSc1nnc(Cc2cc(=O)[nH]c(=O)[nH]2)n1-c1cc(C)ccc1C	7%
Cc1c(-c2ccc(Cl)cc2)noc1C1CCN(CCc2ccccc2)CC1	-1%
COc1cc(NC(=O)c2cc(C(C)C)on2)cc(OC)c1OC	6%
O=C(Nc1ccccc1N1CCOCC1)c1ccc2c(c1)C(=O)N(Cc1ccncc1)C2=O	0%
CCOC(=O)C(NC(=O)Nc1ncccn1)(Oc1ccccc1)C(F)(F)F (stereo unspecified)	8%
O=C(COc1ccc(F)cc1)Nc1nccs1	-25%
C=CCn1cc(C(=O)NCc2ccco2)c(=O)c2cc(S(=O)(=O)N3CCCCCC3)ccc21	u
O=C(CNC(=O)c1cccs1)NCCN1CCN(Cc2ccccc2)CC1	-5%
Cc1onc(-c2ccccc2Cl)c1C(=O)NCc1ccccn1	1%
S=C1SCN(CCN2CCOCC2)CN1Cc1ccccc1	0%
COc1ccc(C)cc1S(=O)(=O)N1CCN(S(=O)(=O)c2cc(C)ccc2OC)C(C)C1 (stereo unspecified)	-6%
Cc1nc(SCC#N)c2c3c(sc2n1)CCC3	10%
Cc1cc(C(=O)CN2C(=O)NC(c3ccccc3)(c3ccccc3)C2=O)c(C)n1Cc1ccco1	-17%
CCOC(=O)/C(C#N)=C1/C=CN(c2ccccc2)C=N1	1%
CCc1n[nH]c2c1/C(=N\O)CC(C)(C)C2	u
C[C@H](NC(=O)Nc1ccccc1F)C(=O)O	9%

Some of the compounds tested (hit frequency here may not be typical).
